Vaccinia stage – blocks a specific stage of Vaccinia orthopoxvirus infection; activity change (mCherry), % (no concentration beside the values); Vaccinia-infected cells, mCherry/Venus stage reporter fluorescence; stronger effect = lower value; some inactives read as strong as hits; actives 0.01% (n = 89,000);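 active means mCherry past -33% and 40 or more points under the early reporter, replicates agreeing; inconclusive means past -33% without that gap or agreement; tested in A549 cells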;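 further: scaled between vehicle wells and reference inhibitor wells; 23 nL library stock went into each well; one replicate is shown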
Vaccinia stage Venus – further read-out of Vaccinia stage, marked with its call; activity change (Venus), %; measured here: Venus reporter, other viral stage;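 negative = less Venus signal; first of two replicates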
The depositor's hits bear a star; ? = inconclusive; / = no result given. These rows are one share of the data, so the mix of outcomes need not match the whole.

The first 3 entries as a preview:
SMILES	Vaccinia stage	Vaccinia stage Venus
CCCC(=O)N1CC2(C1)CN(C(=O)C1CCC1)[C@H](CO)c1[nH]c3cc(OC)ccc3c12	25	13
C[C@@H]1CN([C@H](C)CO)C(=O)c2cc(C#CC3CC3)cnc2O[C@H]1CN(C)Cc1ccncc1	14	10
COc1cccc(CNC(=O)C[C@@H]2CC[C@@H](NC(=O)C3CC3)[C@@H](CO)O2)c1	-1	-3

This part in full (from the top)
SMILES	Vaccinia stage	Vaccinia stage Venus
CCCC(=O)N1CC2(C1)CN(C(=O)C1CCC1)[C@H](CO)c1[nH]c3cc(OC)ccc3c12	25	13
C[C@@H]1CN([C@H](C)CO)C(=O)c2cc(C#CC3CC3)cnc2O[C@H]1CN(C)Cc1ccncc1	14	10
COc1cccc(CNC(=O)C[C@@H]2CC[C@@H](NC(=O)C3CC3)[C@@H](CO)O2)c1	-1	-3
CC=Cc1ccc2n(c1=O)C[C@@H]1[C@@H](CO)[C@H](C(=O)NCC(F)(F)F)N(CC3CC3)[C@H]21 (mixture of isomers)	6	-3
C[C@H]1CCCCO[C@@H](CN(C)S(=O)(=O)c2ccccc2)[C@@H](C)CN([C@@H](C)CO)C(=O)c2cc(NS(=O)(=O)c3ccccc3)ccc2O1	-30	-32
COCC(=O)N1CC[C@@H]2[C@H]1c1cc(-c3ccccc3)ccc1N(C)[C@H]2CO	-7	-19
O=C(N[C@H]1CC[C@H](CC(=O)N2CCN(c3ccccc3)CC2)O[C@@H]1CO)c1ccncc1	7	-1
CN1C(=O)c2cc(NC(=O)c3cccc(C(F)(F)F)c3)ccc2OC[C@@H]2O[C@H](CC(=O)NCCN3CCCC3)CC[C@@H]21	-8	-9
COc1ccc2c3c([nH]c2c1)[C@H](CO)N(Cc1ccccc1)CC31CN(C(=O)c2cccnc2)C1	0	2
COCC(=O)Nc1ccc2c(c1)C(=O)N(C)C[C@H](OC)[C@@H](C)CN(C(=O)c1cccnc1)[C@H](C)CO2	6	1
C/C=C/c1ccc([C@H]2[C@H]3CN(S(=O)(=O)c4ccc(OC)cc4)CCCCN3[C@H]2CO)cc1	-16	-13
C[C@@H]1CN([C@H](C)CO)C(=O)c2cc(NC(=O)CCCN(C)C)ccc2O[C@H]1CN(C)C(=O)Nc1ccc2c(c1)OCO2	19	13
C[C@H]1CN([C@@H](C)CO)C(=O)c2cccc(NC(=O)NC3CCCCC3)c2O[C@H]1CN(C)Cc1ccc(Cl)c(Cl)c1	?	/
COCC(=O)Nc1ccc2c(c1)C(=O)N(C)C[C@H](OC)[C@H](C)CN(C(=O)Cc1ccccn1)[C@H](C)CO2	0	3
COc1ccc(S(=O)(=O)Nc2cccc3c2O[C@H](CN(C)C(=O)Nc2ccccc2)[C@H](C)CN([C@@H](C)CO)C3=O)cc1	1	3
O=C(C[C@H]1C[C@H]2c3cc(NC(=O)Nc4ccccc4F)ccc3O[C@H]2[C@H](CO)O1)NC1CCCCC1	-8	-3
CC(C)c1cn(CC[C@@H]2CC[C@@H](NC(=O)C3CCCCC3)[C@H](CO)O2)nn1	-3	2
O=C(C[C@H]1CC[C@@H](NC(=O)Nc2cc(F)ccc2F)[C@H](CO)O1)NCc1ccc2c(c1)OCO2	-3	10
C[C@@H]1CN([C@@H](C)CO)C(=O)c2cccc(NS(C)(=O)=O)c2O[C@H]1CN(C)C(=O)Nc1ccc(F)cc1	5	7
CCCC(=O)Nc1ccc2c(c1)OC[C@@H](C)N(C(=O)C1CCCC1)C[C@H](C)[C@H](OC)CN(C)C2=O	9	9
C[C@@H]1CCCCO[C@H](CN(C)CC2CCCCC2)[C@H](C)CN([C@H](C)CO)C(=O)c2cc(NC(=O)Nc3ccccc3)ccc2O1	?	/
Cc1ccc(S(=O)(=O)Nc2cccc3c2O[C@@H](CN(C)C(=O)NC(C)C)[C@@H](C)CN([C@H](C)CO)C3=O)cc1	0	5
COc1ccccc1CNC(=O)C[C@H]1CC[C@H]2[C@@H](COc3ccc(NC(=O)c4ccno4)cc3C(=O)N2C)O1	8	7
CCCC(=O)N1CCC2(CC1)CN(C(=O)C1CCCC1)[C@@H](CO)c1[nH]c3cc(OC)ccc3c12	12	5
C[C@H]1CN([C@@H](C)CO)C(=O)c2cc(-c3cccc(C#N)c3)cnc2O[C@@H]1CN(C)C(=O)C1CC1	38	14
COCC(=O)N(C)C[C@@H]1Oc2ncc(-c3ccccc3F)cc2C(=O)N([C@@H](C)CO)C[C@H]1C	10	5
COc1ccccc1-c1cnc2c(c1)C(=O)N([C@@H](C)CO)C[C@@H](C)[C@@H](CN(C)CC1CC1)O2	-17	-14
CCCNC(=O)N1[C@H](CO)[C@@H](c2ccccc2-c2ccccc2)[C@@H]1C#N	-6	-4
C[C@H](CO)N1C[C@H](C)[C@H](CN(C)C(=O)C2CCCCC2)Oc2cc(-c3ccc(F)cc3)ccc2S1(=O)=O	-5	-7
CCCN(C)C[C@H]1OCCCC[C@@H](C)Oc2ccc(NC(=O)c3ccccc3)cc2C(=O)N([C@H](C)CO)C[C@H]1C	?	/
C[C@@H]1CN([C@@H](C)CO)C(=O)CCCn2nncc2CO[C@H]1CN(C)S(=O)(=O)c1ccccc1F	18	27
Cc1noc(C)c1S(=O)(=O)N(C)C[C@H]1OCCCC[C@H](C)Oc2ccc(NC(=O)c3ccccc3)cc2C(=O)N([C@H](C)CO)C[C@@H]1C	-20	-8
COCC(=O)Nc1ccc2c(c1)[C@@H]1C[C@H](CC(=O)NCc3ccc(OC)cc3)O[C@H](CO)[C@@H]1O2	14	9
C[C@H]1CN([C@@H](C)CO)C(=O)Cc2cc(NS(=O)(=O)c3cn(C)cn3)ccc2O[C@H]1CN(C)Cc1ccc(C(=O)Nc2ccccc2N)cc1	19	1
C[C@H](CO)N1C[C@H](C)[C@@H](CN(C)C(=O)Nc2ccc(F)cc2)Oc2ncc(C3=CCCC3)cc2C1=O	9	5
CCC(=O)N1CCCCN2[C@@H](CO)[C@@H](c3ccc(-c4cccnc4)cc3)[C@@H]2C1	0	-5
C[C@@H]1CN([C@H](C)CO)C(=O)c2cc(NC(=O)Nc3ccccc3)ccc2O[C@@H](C)CCCCO[C@@H]1CN(C)Cc1ccc(Cl)c(Cl)c1	-17	-7
C[C@H]1CN([C@@H](C)CO)C(=O)Cc2cc(NC(=O)Nc3cccc4ccccc34)ccc2O[C@@H]1CN(C)S(=O)(=O)c1ccc(Cl)cc1	6	8
CO[C@H]1CN(C)C(=O)c2ccc(NC(=O)c3ccno3)cc2OC[C@@H](C)N(S(C)(=O)=O)C[C@@H]1C	17	10
C[C@H](CO)N1C[C@H](C)[C@@H](CN(C)S(=O)(=O)c2cccs2)OCc2ccccc2-c2c(n(C)c3ccccc23)C1=O	?	/
C[C@@H]1CN([C@H](C)CO)C(=O)c2cc(NC(=O)C3CCCCC3)ccc2O[C@@H](C)CCCCO[C@H]1CN(C)S(=O)(=O)c1cn(C)cn1	22	19
O=C(Nc1ccc2c(c1)OCO2)N[C@@H]1CC[C@@H](CCNC(=O)C2CCCC2)O[C@@H]1CO	5	8
CCCN(C)C[C@H]1Oc2ncc(C#Cc3ccc(OC)cc3)cc2C(=O)N([C@@H](C)CO)C[C@H]1C	-25	-19
CCNC(=O)C[C@@H]1CC[C@@H]2[C@H](COc3ccc(NC(=O)Nc4ccc(C)cc4)cc3C(=O)N2C)O1	-3	-3
CCCNC(=O)C[C@H]1C[C@@H]2c3cc(NS(C)(=O)=O)ccc3O[C@@H]2[C@H](CO)O1	12	8
C[C@H](CO)N1C[C@H](C)[C@@H](CN(C)Cc2ccc(F)cc2)Oc2ncc(-c3ccncc3)cc2C1=O	-1	-5
CCS(=O)(=O)Nc1ccc2c(c1)C(=O)N(C)C[C@@H](OC)[C@H](C)CN(Cc1nccs1)[C@H](C)CO2	3	-5
CC=Cc1ccc2n(c1=O)C[C@H]1[C@H](CO)[C@@H](C(=O)NCc3ccccc3)N(CC)[C@@H]21 (mixture of isomers)	8	8
COc1ccc(CN2C[C@H](O)COC[C@@H]3O[C@@H](CC(=O)N4CCc5ccccc5C4)CC[C@H]32)cc1	-12	-11
CO[C@H]1CC[C@@H]2CCN(C)C(=O)[C@H](C)N(C)C(=O)c3cc(C#N)ccc3OC[C@@H]1O2	17	3
C[C@@H]1CN([C@@H](C)CO)S(=O)(=O)c2ccc(C#CC3CCCC3)cc2O[C@@H]1CN(C)S(C)(=O)=O	-30	-38
CCNC(=O)c1cc2c(c(-c3cccc(Br)c3)n1)[C@H](CCO)NC2	4	7
CO[C@@H]1CN(C)C(=O)c2cc(NC(=O)NC3CCCCC3)ccc2OC[C@@H](C)N(C(C)=O)C[C@H]1C	-2	-1
C[C@H](NC(=O)C[C@@H]1CC[C@@H](NC(=O)C2CC2)[C@H](CO)O1)c1ccccc1	-3	1
Cc1noc(C)c1NC(=O)N(C)C[C@@H]1OCCCC[C@@H](C)Oc2ccc(NS(=O)(=O)c3c(C)noc3C)cc2C(=O)N([C@H](C)CO)C[C@H]1C	33	23
C[C@@H]1CCCCO[C@@H](CN(C)Cc2ccc(C(=O)O)cc2)[C@@H](C)CN([C@H](C)CO)C(=O)c2cc(NS(=O)(=O)c3ccc(F)cc3)ccc2O1	42	23
C[C@@H]1CCCCO[C@@H](CN(C)Cc2ccc(C(=O)Nc3ccccc3N)cc2)[C@@H](C)CN([C@H](C)CO)C(=O)c2cc(NC(=O)CCC(F)(F)F)ccc2O1	5	-2
CCOC(=O)N(C)C[C@@H]1OCc2cn(nn2)CCCC(=O)N([C@@H](C)CO)C[C@H]1C	13	12
C[C@@H]1CN([C@H](C)CO)C(=O)c2cc(C#CC3CCCCC3)cnc2O[C@@H]1CN(C)C(=O)Cc1ccccn1	-7	-1
C[C@H]1CN([C@@H](C)CO)C(=O)c2cc(NS(C)(=O)=O)ccc2O[C@@H]1CN(C)C(=O)Nc1ccc(C(F)(F)F)cc1	9	6

(more compounds)
SMILES	Vaccinia stage	Vaccinia stage Venus
CN1[C@@H](CO)[C@@H]2c3ccccc3N(C(=O)Nc3cc(F)ccc3F)C[C@@H]21	9	-6
C[C@@H]1CN([C@@H](C)CO)C(=O)c2cc(NC(=O)CCC(F)(F)F)ccc2O[C@H]1CN(C)CC1CC1	9	10
COc1ccc(S(=O)(=O)N(C)C[C@@H]2Oc3ccc(NC(=O)Cc4ccccc4)cc3CC(=O)N([C@@H](C)CO)C[C@@H]2C)cc1	3	1
CCCC#Cc1cnc2c(c1)C(=O)N([C@@H](C)CO)C[C@@H](C)[C@H](CN(C)Cc1ccc3c(c1)OCO3)O2	?	/
O=C(Nc1cc(F)ccc1F)N[C@@H]1CC[C@@H](CCn2cc(C3CC3)nn2)O[C@H]1CO	1	-1
C[C@H]1CN([C@@H](C)CO)C(=O)c2cc(NC(=O)CCN3CCOCC3)ccc2O[C@@H]1CN(C)Cc1ccccc1	-5	-4
C[C@H](CO)N1C[C@H](C)[C@H](CN(C)S(=O)(=O)c2cn(C)cn2)Oc2ccc(NC(=O)C3CCCCC3)cc2C1=O	5	-1
N#C[C@@H]1[C@@H](c2ccccc2-c2ccccc2)[C@H](CO)N1C(=O)Cc1cccnc1	-7	-9
C[C@@H]1CN([C@@H](C)CO)C(=O)c2cc(/C=C/c3ccccc3)cnc2O[C@@H]1CN(C)C(=O)c1ccncc1	12	0
COc1ccc(S(=O)(=O)N(C)C[C@@H]2OCCCC[C@@H](C)Oc3ccc(NC(=O)CCC(F)(F)F)cc3C(=O)N([C@H](C)CO)C[C@@H]2C)cc1	23	6
Cc1ccccc1-c1ccccc1[C@H]1[C@@H](C#N)N(C(=O)c2ccccc2)[C@H]1CO	-2	0
CC=Cc1ccc2n(c1=O)C[C@@H]1[C@@H](CO)[C@H](C(=O)NCCCN(C)C)[C@H]2N1Cc1nccs1 (mixture of isomers)	18	12
O=C(NCC1CCCCC1)[C@@H]1[C@@H](CO)[C@@H]2Cn3c(ccc(C4=CCCCC4)c3=O)[C@H]1N2	7	2
COCC#Cc1cnc2c(c1)C(=O)N([C@H](C)CO)C[C@@H](C)[C@H](CN(C)S(C)(=O)=O)O2	15	9
COc1ccc2c3c([nH]c2c1)[C@@H](CO)NCC31CCN(C(=O)C2CCCC2)CC1	-10	-2
CC(=O)Nc1ccc2c(c1)C(=O)N(C)[C@@H]1CC[C@@H](CC(=O)Nc3cn(C)nc3C)O[C@H]1CO2	8	10
CCC(=O)Nc1ccc2c(c1)OC[C@@H](C)N(Cc1nccs1)C[C@H](C)[C@H](OC)CN(C)C2=O	6	4
O=C(NCC[C@@H]1CC[C@H](NS(=O)(=O)c2cccc(F)c2)[C@@H](CO)O1)C1CCCC1	-6	5
CC(=O)N1CCCCN2[C@H](CO)[C@@H](c3ccc(Br)cc3)[C@H]2C1	10	4
C[C@@H]1CN([C@H](C)CO)C(=O)c2cc(NC(=O)NC3CCCCC3)ccc2O[C@@H]1CN(C)C(=O)Nc1ccc2c(c1)OCO2	7	5

4 entries from above, set out differently.
CCCC(=O)N1CC2(C1)CN(C(=O)C1CCC1)[C@H](CO)c1[nH]c3cc(OC)ccc3c12
  Vaccinia stage: 25
  Vaccinia stage Venus: 13

C[C@@H]1CN([C@H](C)CO)C(=O)c2cc(C#CC3CC3)cnc2O[C@H]1CN(C)Cc1ccncc1
  Vaccinia stage: 14
  Vaccinia stage Venus: 10

COc1cccc(CNC(=O)C[C@@H]2CC[C@@H](NC(=O)C3CC3)[C@@H](CO)O2)c1
  Vaccinia stage: -1
  Vaccinia stage Venus: -3

CC=Cc1ccc2n(c1=O)C[C@@H]1[C@@H](CO)[C@H](C(=O)NCC(F)(F)F)N(CC3CC3)[C@H]21 (mixture of isomers)
  Vaccinia stage: 6
  Vaccinia stage Venus: -3
